Vaccinia inh: blocks a specific stage of Vaccinia orthopoxvirus infection; Vaccinia-infected cells, mCherry/Venus stage reporter fluorescence; stronger effect = lower value; some inactives read as strong as hits; activity change (mCherry), % (concentration not given with the values); hit rate 0.01% among 89,000;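 active = mCherry past -33% and 40 or more points under the early reporter, replicates agreeing; inconclusive = past -33% without that gap or agreement; tested in A549 cells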;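 also: scaled between vehicle wells and reference inhibitor wells; 23 nL library stock went into each well; one replicate is shown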
Vaccinia inh Venus: further read-out of Vaccinia inh, marked with its call; activity change (Venus), %; measured here: Venus reporter, other viral stage;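 negative = less Venus signal; first of two replicates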
* = called active by the depositor; ? = inconclusive; . = not tested or not shown; & = joins results of further samples. A portion of the library (hit frequency here may not be typical).

SMILES | Vaccinia inh | Vaccinia inh Venus
O=C(C1CC1)N1CCCCN2[C@H](C1)[C@@H](c1ccc(C#CC3CC3)cc1)[C@@H]2CO | -16 | -6
Cc1noc(C)c1NC(=O)N(C)C[C@H]1Oc2ncc(C#CCC(C)C)cc2C(=O)N([C@@H](C)CO)C[C@@H]1C | 13 | 0
O=C(N[C@@H]1CC[C@H](CCNS(=O)(=O)c2ccc(Cl)cc2)O[C@H]1CO)c1cccnc1 | -2 | -2
C[C@H](CO)N1C[C@H](C)[C@H](CN(C)C(=O)Nc2ccccc2)Oc2ccc(NC(=O)NC3CCCCC3)cc2C1=O | 6 | 6
O=C(CCN1CCCCC1)N[C@@H]1CC[C@H](CCn2cc(-c3ccc(F)cc3)nn2)O[C@@H]1CO | 5 | -3
Cc1noc(C)c1NC(=O)Nc1cccc2c1O[C@@H](CN(C)C)[C@@H](C)CN([C@H](C)CO)C2=O | 12 | 9
Cc1cccc(S(=O)(=O)N2CCCCN3[C@@H](CO)[C@@H](c4ccc(C#C[C@@H](C)O)cc4)[C@@H]3C2)c1 | 3 | -11
C[C@@H]1CN([C@@H](C)CO)C(=O)c2cc(-c3ccc(F)cc3)cnc2O[C@H]1CN(C)Cc1ccc(C(=O)O)cc1 | 24 | 10
C[C@H](CO)N1C[C@H](C)[C@@H](CN(C)C(=O)Nc2ccc3c(c2)OCO3)OCCCC[C@H](C)Oc2ccc(NC(=O)c3ccccc3)cc2C1=O | -25 | -23
CN1C[C@@H]2[C@H](c3ccccc31)[C@@H](CO)N2C(=O)Nc1ccccc1Cl | -6 | 0
C[C@H]1CN([C@@H](C)CO)C(=O)Cc2cc(NS(=O)(=O)c3cn(C)cn3)ccc2O[C@H]1CN(C)C(=O)Nc1ccc(C(F)(F)F)cc1 | -2 | -2
C[C@@H]1CN([C@@H](C)CO)C(=O)Cc2cc(NC(=O)CCC(F)(F)F)ccc2O[C@@H]1CN(C)C | 4 | 3
Cc1noc(C)c1NC(=O)N(C)C[C@@H]1OCCCC[C@H](C)Oc2ccc(NC(=O)NC3CCCCC3)cc2C(=O)N([C@H](C)CO)C[C@@H]1C | 16 | 1
COC(=O)C[C@@H]1CC[C@@H]2[C@@H](COc3ccc(NS(=O)(=O)c4cccc(F)c4)cc3C(=O)N2C)O1 | 8 | 7
C[C@H](CO)N1C[C@H](C)[C@@H](CN(C)C(=O)NC2CCCCC2)Oc2ccc(NC(=O)Cn3cnnn3)cc2CC1=O | 28 | 16
O=S(=O)(c1ccccc1)N1CCCCN2[C@H](CO)[C@@H](c3ccc(C#CC4CCCC4)cc3)[C@H]2C1 | -12 | -9
Cn1cnc(S(=O)(=O)N2C[C@@H](O)COC[C@@H]3O[C@@H](CC(=O)NCc4cc(F)cc(F)c4)CC[C@H]32)c1 | 9 | 8
O=C(C[C@@H]1C=C[C@H](NC(=O)Nc2ccccc2F)[C@H](CO)O1)NCc1ccccc1 | 1 | -2
N#C[C@H]1[C@@H](c2ccc(-c3ccccc3F)cc2)[C@H](CO)N1C(=O)Cc1ccccc1 | -33 | -30
COCC(=O)N(C)C[C@H]1Oc2cc(C#CCC(C)C)ccc2S(=O)(=O)N([C@H](C)CO)C[C@H]1C | -7 | -7
O=C(C1CCC1)N1CCCCN2[C@H](CO)[C@H](c3ccc(-c4cccc(F)c4)cc3)[C@@H]2C1 | -9 | -24
N#C[C@@H]1[C@H](c2ccc(-c3ccccc3F)cc2)[C@@H](CO)N1C(=O)c1ccccn1 | -18 | -17
Cc1cc(C(=O)Nc2cccc3c2O[C@H](CN(C)S(=O)(=O)c2cccs2)[C@@H](C)CN([C@H](C)CO)C3=O)n(C)n1 | 2 | -2
CCC(=O)N1C[C@@H](C)[C@H](OC)CN(C)C(=O)c2ccc(NC(=O)NC(C)C)cc2OC[C@@H]1C | 2 | 9

Arranged by number of heavy atoms (highest first): part of the list above.
SMILES | Vaccinia inh | Vaccinia inh Venus
Cc1noc(C)c1NC(=O)N(C)C[C@@H]1OCCCC[C@H](C)Oc2ccc(NC(=O)NC3CCCCC3)cc2C(=O)N([C@H](C)CO)C[C@@H]1C | 16 | 1
C[C@H](CO)N1C[C@H](C)[C@@H](CN(C)C(=O)NC2CCCCC2)Oc2ccc(NC(=O)Cn3cnnn3)cc2CC1=O | 28 | 16
Cc1cc(C(=O)Nc2cccc3c2O[C@H](CN(C)S(=O)(=O)c2cccs2)[C@@H](C)CN([C@H](C)CO)C3=O)n(C)n1 | 2 | -2
Cn1cnc(S(=O)(=O)N2C[C@@H](O)COC[C@@H]3O[C@@H](CC(=O)NCc4cc(F)cc(F)c4)CC[C@H]32)c1 | 9 | 8
O=S(=O)(c1ccccc1)N1CCCCN2[C@H](CO)[C@@H](c3ccc(C#CC4CCCC4)cc3)[C@H]2C1 | -12 | -9
CCC(=O)N1C[C@@H](C)[C@H](OC)CN(C)C(=O)c2ccc(NC(=O)NC(C)C)cc2OC[C@@H]1C | 2 | 9
O=C(C1CCC1)N1CCCCN2[C@H](CO)[C@H](c3ccc(-c4cccc(F)c4)cc3)[C@@H]2C1 | -9 | -24
O=C(C[C@@H]1C=C[C@H](NC(=O)Nc2ccccc2F)[C@H](CO)O1)NCc1ccccc1 | 1 | -2
N#C[C@@H]1[C@H](c2ccc(-c3ccccc3F)cc2)[C@@H](CO)N1C(=O)c1ccccn1 | -18 | -17

Additional entries.
SMILES | Vaccinia inh | Vaccinia inh Venus
CO[C@@H]1CN(C)C(=O)c2ccc(NC(=O)c3ccccc3)cc2OC[C@H](C)NC[C@@H]1C | 23 | 9
C[C@H](CO)N1C[C@H](C)[C@@H](CN(C)C(=O)Nc2cccc3ccccc23)Oc2ccc(NC(=O)Cc3ccccc3)cc2CC1=O | 44 | 13
CO[C@H]1CN(C)C(=O)c2ccc(NS(C)(=O)=O)cc2OC[C@H](C)N(CC2CCCCC2)C[C@H]1C | 4 | 2
CN1C(=O)c2cc(NC(=O)C3CCOCC3)ccc2OC[C@@H]2O[C@@H](CC(=O)NCC3CC3)CC[C@H]21 | 13 | 6
CN(C)C(=O)c1ccc(-c2ccc([C@@H]3[C@@H](CO)N4CCCCN(Cc5ccncc5)C[C@H]34)cc2)cc1 | 15 | 12
CO[C@@H]1CN(C)C(=O)c2cc(NS(=O)(=O)c3cccc(C)c3)ccc2OC[C@@H](C)NC[C@H]1C | 3 | 11
O=C(C[C@@H]1CC[C@@H](NS(=O)(=O)c2ccc(F)cc2)[C@H](CO)O1)NCc1ccc(Cl)c(Cl)c1 | -32 | -22
Cn1cnc(S(=O)(=O)N2[C@@H]3CNC[C@H]2C3c2ccc(-c3ccccc3)cc2)c1 (stereo partly drawn) | -1&4 | -1&8
COCCNC(=O)C[C@@H]1CC[C@H]2[C@H](COc3ccc(NC(=O)Nc4ccccc4)cc3C(=O)N2C)O1 | 3 | 7
O=C(Nc1cc(F)ccc1F)N[C@@H]1CC[C@H](CCNC(=O)c2cnccn2)O[C@@H]1CO | 5 | 2
COc1ccc(NC(=O)Nc2ccc3c(c2)CC(=O)N([C@@H](C)CO)C[C@H](C)[C@@H](CN(C)S(=O)(=O)c2ccccc2)O3)cc1 | 14 | 10
O=C(C[C@H]1C=C[C@H](NC(=O)NC2CCCCC2)[C@@H](CO)O1)NCc1ccc(Cl)cc1 | 15 | 19
C[C@H]1CN([C@@H](C)CO)C(=O)c2cc(C#CC3CC3)cnc2O[C@@H]1CN(C)S(=O)(=O)c1cccc(F)c1 | 2 | -12
COc1ccc2c3c(n(C)c2c1)[C@@H](CO)N(Cc1cccnc1)CC31CN(C(=O)c2cccnc2)C1 | 12 | 13
C[C@@H]1CCCCO[C@@H](CN(C)C(=O)C2CCCCC2)[C@@H](C)CN([C@@H](C)CO)C(=O)c2cc(NS(=O)(=O)c3cn(C)cn3)ccc2O1 | 26 | 15
C[C@H]1CN([C@@H](C)CO)C(=O)c2cccc(NC(=O)c3ccc(-c4nccs4)cc3)c2O[C@H]1CN(C)S(=O)(=O)c1ccc(F)cc1 | -7 | 0
O=C(C[C@@H]1CC[C@@H](NC(=O)Nc2ccc3c(c2)OCO3)[C@H](CO)O1)NCc1ccc(F)cc1 | -7 | -5
O=C(C[C@H]1CC[C@H]2[C@@H](COC[C@H](O)CN2C(=O)c2ccncc2)O1)NC1Cc2ccccc2C1 | 1 | 11
Cc1noc(C)c1NC(=O)Nc1ccc2c(c1)C(=O)N([C@@H](C)CO)C[C@@H](C)[C@H](CN(C)C)O2 | 16 | 16
COCC#Cc1cnc2c(c1)C(=O)N([C@@H](C)CO)C[C@@H](C)[C@H](CN(C)C(=O)Nc1ccc(OC)cc1)O2 | 22 | 10
Cc1ccc(S(=O)(=O)Nc2ccc3c(c2)CC(=O)N([C@H](C)CO)C[C@@H](C)[C@@H](CN(C)C(=O)Nc2c(C)noc2C)O3)cc1 | 25 | 10
C[C@@H]1CCCCO[C@H](CN(C)S(=O)(=O)c2cccs2)[C@@H](C)CN([C@@H](C)CO)C(=O)c2cc(NC(=O)Nc3ccccc3)ccc2O1 | 0 | 5
COc1ccc(S(=O)(=O)N(C)C[C@@H]2Oc3ncc(-c4ccncc4)cc3C(=O)N([C@@H](C)CO)C[C@@H]2C)cc1 | 4 | -1
C[C@@H]1CN([C@@H](C)CO)C(=O)c2cc(NS(=O)(=O)c3cn(C)cn3)ccc2O[C@@H]1CN(C)C | 5 | 3
COc1cccc(C(=O)N2C[C@@H]3[C@H](c4ccccc42)[C@@H](CO)N3C(=O)c2ccccc2)c1 | -3 | 8
O=C(C[C@H]1CC[C@H]2[C@@H](COC[C@@H](O)CN2S(=O)(=O)c2ccc(Cl)cc2)O1)N[C@@H]1CCN(Cc2ccccc2)C1 | -24 | -17
C[C@H]1CN([C@@H](C)CO)C(=O)c2cc(C#Cc3ccccn3)cnc2O[C@@H]1CN(C)Cc1cncnc1 | 16 | 12
CO[C@H]1CN(C)C(=O)c2ccc(NC(=O)c3ccc(F)cc3)cc2OC[C@@H](C)N(C(C)=O)C[C@@H]1C | 11 | 11
Cc1ccc(S(=O)(=O)Nc2ccc3c(c2)C(=O)N(C)[C@@H]2CC[C@H](CC(=O)NCCc4ccncc4)O[C@H]2CO3)cc1 | 4 | 2
C[C@@H]1CCCCO[C@H](CN(C)C(=O)CCCN(C)C)[C@H](C)CN([C@@H](C)CO)C(=O)c2cc(NC(=O)c3ccccc3)ccc2O1 | 1 | -1
CN1c2ccc(Br)cc2[C@H]2[C@H](CCN2C(=O)Nc2ccccc2F)[C@H]1CO | -8 | -4
COCCNC(=O)C[C@H]1C[C@@H]2c3cc(NC(=O)CC4CC4)ccc3O[C@@H]2[C@@H](CO)O1 | 6 | 6
CCCNC(=O)Nc1ccc2c(c1)C(=O)N(C)[C@H]1CC[C@H](CC(=O)Nc3cccc(C)c3)O[C@@H]1CO2 | 8 | 2
COC(=O)C[C@@H]1CC[C@H]2[C@@H](COc3ccc(NC(=O)c4ccc(F)cc4)cc3C(=O)N2C)O1 | -4 | 1
C[C@@H]1CN([C@@H](C)CO)C(=O)c2cc(NC(=O)Nc3ccc(C(F)(F)F)cc3)ccc2O[C@@H](C)CCCCO[C@H]1CN(C)S(=O)(=O)c1ccc(F)cc1 | 2 | 9
Cc1ccc(S(=O)(=O)Nc2ccc3c(c2)C(=O)N([C@@H](C)CO)C[C@H](C)[C@@H](CN(C)S(=O)(=O)c2ccc(C)cc2)OCCCC[C@@H](C)O3)cc1 | -7 | 0
CC=Cc1ccc2n(c1=O)C[C@@H]1[C@@H](CO)[C@H](C(=O)NC3CCC3)N(CCC(F)(F)F)[C@H]21 (mixture of isomers) | 7 | 7
C[C@@H]1CN([C@H](C)CO)C(=O)Cc2cc(NS(=O)(=O)c3ccc(Cl)cc3)ccc2O[C@@H]1CN(C)C(=O)Nc1ccc(F)cc1 | 8 | 4
O=S(=O)(N[C@@H]1CC[C@H](CCn2cc(C3(O)CCCC3)nn2)O[C@@H]1CO)c1ccc(Cl)cc1 | 3 | 5
C[C@H](CO)N1C[C@H](C)[C@H](CN(C)S(=O)(=O)c2cn(C)cn2)OCc2ccccc2-c2ccccc2C1=O | 28 | 16
CO[C@H](CN(C)Cc1ccc2c(c1)OCO2)[C@@H](C)CN(C(=O)Nc1ccc(F)cc1)[C@H](C)CO | -5 | -3
O=C(C[C@H]1CC[C@@H]2[C@H](COC[C@H](O)CN2CC2CCCC2)O1)NCC1CC1 | -3 | 1
C/C=C/c1ccc2c(c1)O[C@@H](CN(C)C(=O)Nc1ccc(F)cc1)[C@H](C)CN([C@@H](C)CO)S2(=O)=O | -21 | -22
C/C=C/c1cnc2c(c1)C(=O)N([C@H](C)CO)C[C@@H](C)[C@H](CN(C)Cc1ccccc1F)O2 | -14 | -15
CC=Cc1ccc2n(c1=O)C[C@H]1[C@H](CO)[C@@H](C(=O)NCc3ccccc3)N(C)[C@@H]21 (mixture of isomers) | 13 | 11
Cc1cccc(S(=O)(=O)N2CCCCN3[C@H](C2)[C@H](c2ccc(C#CC4CC4)cc2)[C@@H]3CO)c1 | -25 | -28
COc1cccc(NC(=O)N2CC(=O)N3[C@H](CO)[C@H](c4ccc(C5=CCCC5)cc4)[C@@H]3C2)c1 | ? | .
COc1cccc(NC(=O)N2CC3(C2)[C@H](c2ccccc2)[C@@H](CO)N3C(C)=O)c1 | 12 | 15
CN(C)C(=O)C[C@H]1CC[C@H]2[C@H](COc3ccc(NC(=O)c4ccc(F)c(F)c4)cc3C(=O)N2C)O1 | 9 | 9
Cc1ccc(S(=O)(=O)Nc2ccc3c(c2)CC(=O)N([C@H](C)CO)C[C@@H](C)[C@H](CN(C)C(=O)NC2CCCCC2)O3)cc1 | -4 | -5
C[C@@H]1CN([C@@H](C)CO)C(=O)c2cccc(N(C)C)c2O[C@H]1CN(C)C(=O)Nc1ccc(C(F)(F)F)cc1 | -5 | -2
